Giardia kill: Giardia lamblia killing; Giardia lamblia trophozoite viability; activity change, % at 7.66 µM, hits read low; 340,000 compounds, 0.15% hits; AID 540267; in the data active = activity change below about -80%; inconclusive = between about -30% and that limit;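 note: parasites exposed to compound for two days anaerobically before the ATP read; % is set by controls: 0 for no effect and ±100 for the full control effect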
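Viability, read as ATP luminescence: trophozoites at 100 cells/well, compound added, 48 hrs anaerobic at 37 deg C, then 15-30 min room-temperature development before reading.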
TCR activator: activates T cell receptor signaling; AID 504894; Potency, µM (top dose mostly 9.22 µM), inactives show at the top dose activation of IL-2 secretion, actives largely listed as activators; primary human leukocytes, anti-CD3, IL-2 HTRF, 48 h; 330,000 tested, under 10 active; note: % of control where 0% means no effect
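HTRF read-out of IL-2 secretion: europium cryptate donor excited at 320nm, d2 acceptor emission at 665nm. Cells were primary human leukocytes incubated 48 hr with compounds and a-CD3 beads, supplying TCR signal only.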
A-T KAP1 phos: potential ataxia-telangiectasia treatments restoring KAP-1 phosphorylation; […] A-T fibroblasts, KAP-1 phosphorylation AlphaLISA; neocarzinostatin DNA damage 30 min before lysis; Potency, µM (highest dose often 57.5 µM), for inactives: at the top dose activation, hits mostly activators; 320,000 compounds, 0.19% hits; AID 485349; note: potency is the fitted concentration of half-maximal effect; % of control where 0% means no effect; nearly all actives have a fitted effect of over 45% in size
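hTERT-immortalized A-T patient fibroblasts ([…]), 500 cells/well in OPTI-MEM, 1% FBS, got compounds for 60 min, then NCS for 30 min at 37C. Lysates were then assayed for phospho-KAP-1 by AlphaLISA (anti-pKAP1 donor, anti-KAP1 acceptor beads), 6 hr at 25C.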
BCR signal inh: inhibitors of chronic active B-cell receptor signaling. ABC-DLBCL IkBa-CBG/CBR reporter, luminescence ratio, 4 h. Potency, µM (series often up to 46.1 µM), inactives show at the top dose ratio change, negative = lower green/red ratio, most hits filed as inhibitors. 340,000 compounds, 0.05% hits; active = well fitted inhibition curve with a large enough effect in the signal ratio, with a control signal flat, not every such curve was filed as active; inconclusive = small, poorly fitted or top-dose-only effect, or effect the other way, or a change in a side signal; the % refers to the signal ratio;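 note: potency is the fitted concentration of half-maximal effect; plate controls were basal doxycycline-induced cells for no effect and cells given 10 µM MG132 for full effect; MG132 reads +100%, hits lower the ratio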
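Doxycycline induced both beetle luciferases in TMD8 lymphoma cells; IKK-driven degradation limits the IkappaBalpha-fused green signal, while red luminescence normalises for cell number and nonspecific effects. Compounds tested up to 46 uM, 4 hrs.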
FBPA coupling cs: counter-screen for Giardia aldolase inhibitors: coupling enzyme system; 290,000 compounds, 0.67% hits; activity change, negative = inhibition, % at 58.2 µM, hits read low; coupling enzyme system counterscreen, AmpLite Red fluorescence; in the data active = activity change below about -30%; note: % is set by controls: 0 for no effect and ±100 for the full control effect
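Activity here indicates interference with the coupling reaction, not aldolase inhibition. Compounds at 57.5 uM final met coupling enzymes for 10 min at RT; substrate and AmpLite Red detection followed, with a 525/598 nm fluorescence read after 20 min.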
GALK inhibitor: inhibitors of human galactokinase | Potency, µM (titrated, usually from 57.5 µM), for the others: at the top dose activity change, negative = inhibition, usual class: inhibitors | P51570 | Purified GALK, Kinase-Glo residual ATP luminescence | 270,000 compounds, 0.007% hits | AID 1868; note: potency is the fitted concentration of half-maximal effect; % is set by controls: 0 for no effect and ±100 for the full control effect
Target sequence (P51570 whole entry, looked up): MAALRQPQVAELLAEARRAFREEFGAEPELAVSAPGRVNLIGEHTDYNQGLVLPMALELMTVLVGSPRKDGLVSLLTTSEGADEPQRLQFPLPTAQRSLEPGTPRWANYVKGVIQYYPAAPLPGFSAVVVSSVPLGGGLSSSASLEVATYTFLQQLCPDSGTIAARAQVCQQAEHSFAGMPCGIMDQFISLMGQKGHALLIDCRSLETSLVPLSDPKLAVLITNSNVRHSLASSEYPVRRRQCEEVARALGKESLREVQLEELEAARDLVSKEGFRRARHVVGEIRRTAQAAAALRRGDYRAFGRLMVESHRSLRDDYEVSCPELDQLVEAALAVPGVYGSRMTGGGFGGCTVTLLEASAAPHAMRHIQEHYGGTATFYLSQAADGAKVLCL
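Human GALK (5 nM) with 35 uM ATP and 100 uM galactose in 20 mM HEPES pH 8.0, 5 mM MgCl2, 60 mM NaCl, 1 mM DTT, 0.01% BSA. After 1 h at room temperature, leftover ATP was read by Kinase-Glo Plus luminescence.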
Tb PFK inh: T. brucei PFK enzyme inhibition; O15648; T. brucei PFK, ADP-Glo luminescence; Potency, µM (highest dose often 57.5 µM), for the others: at the highest dose activity, negative = inhibition, most hits filed as inhibitors; 330,000 compounds, 0.17% hits; AID 485367;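 note: potency is the fitted concentration of half-maximal effect; 0% = uninhibited 1x PFK enzyme wells and -100% = no-enzyme wells; nearly all actives have a fitted effect of over 60% in size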
Target sequence (O15648 whole entry, looked up): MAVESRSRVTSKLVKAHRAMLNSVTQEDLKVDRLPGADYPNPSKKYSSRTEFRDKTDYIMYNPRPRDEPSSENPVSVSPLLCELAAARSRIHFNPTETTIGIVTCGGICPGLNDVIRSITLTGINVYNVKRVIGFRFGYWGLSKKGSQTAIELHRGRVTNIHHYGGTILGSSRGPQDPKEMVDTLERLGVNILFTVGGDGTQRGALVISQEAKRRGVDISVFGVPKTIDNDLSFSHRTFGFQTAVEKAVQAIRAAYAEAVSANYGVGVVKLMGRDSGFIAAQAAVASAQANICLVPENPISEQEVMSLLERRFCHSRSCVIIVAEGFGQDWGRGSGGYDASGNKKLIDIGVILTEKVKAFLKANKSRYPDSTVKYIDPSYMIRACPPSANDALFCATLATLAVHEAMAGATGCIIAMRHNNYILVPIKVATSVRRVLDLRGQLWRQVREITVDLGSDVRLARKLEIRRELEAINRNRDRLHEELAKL
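Compounds were pin-transferred as a titration series up to 57 uM into substrate buffer (0.5 mM F6P, 0.1 mM ATP, pH 8.0), then 1.25 nM PFK was added and reactions ran 45 min before ADP-Glo detection.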
The depositor's hits bear a star; & = joins results of further samples; ! = a repeat was not active; [ ] = remark or other dose. Unless noted, calls come from the whole dose curve; as a rule, active = well fitted curve in the direction sought with a large enough effect; inconclusive = small, poorly fitted or top-dose-only effect, or another doubt; inactive = no such curve, though single readings can be large; an effect the other way counts as inactive or inconclusive.

The first 6 entries, ahead of the listing:
How did CC(C)c1ccc(-c2c(NCCc3ccccc3)c(=O)c2=O)cc1 do in these assays?
Giardia kill: 1; TCR activator: 4%; A-T KAP1 phos: -4%; BCR signal inh: 8%; FBPA coupling cs: 5; GALK inhibitor: -1%; Tb PFK inh: 0%

How did C[C@H]1[C@H](NC(=O)C(=NOC(C)(C)C(=O)O)c2csc(N)n2)C(=O)N1S(=O)(=O)O do in these assays?
Giardia kill: 7; TCR activator: 0%; A-T KAP1 phos: -1%; BCR signal inh: 2%; Tb PFK inh: 4%

What do the screens show for `CC(C)COCC(CN(Cc1ccccc1)c1ccccc1)N1CCCC1` (stereo not drawn)?
Giardia kill: 3; TCR activator: 9%; BCR signal inh: inconclusive; FBPA coupling cs: 0&-1; GALK inhibitor: 4%; Tb PFK inh: 0%

What do the screens show for `Nc1ccn([C@@H]2CS[C@H](CO)O2)c(=O)n1`?
BCR signal inh: 2%; FBPA coupling cs: 2&0; GALK inhibitor: 1%; Tb PFK inh: 1%

What do the screens show for `Nc1nc2c(ncn2COCCO)c(=O)[nH]1`?
Giardia kill: 4&10; TCR activator: 4%; A-T KAP1 phos: 0%; BCR signal inh: 4%; FBPA coupling cs: 3&3&-4&-2; GALK inhibitor: -3%; Tb PFK inh: -9%

Results for O=C1C=C(NNC(=O)c2cccnc2)CC(c2ccco2)C1 (stereo not drawn) ?
Giardia kill: -24; TCR activator: 5%; A-T KAP1 phos: -5%; BCR signal inh: inconclusive; FBPA coupling cs: 0; GALK inhibitor: 1%; Tb PFK inh: 0%

Main list, previewed entries included:
How did CC(C)c1ccc(-c2c(NCCc3ccccc3)c(=O)c2=O)cc1 do in these assays?
Giardia kill: 1; TCR activator: 4%; A-T KAP1 phos: -4%; BCR signal inh: 8%; FBPA coupling cs: 5; GALK inhibitor: -1%; Tb PFK inh: 0%

How did C[C@H]1[C@H](NC(=O)C(=NOC(C)(C)C(=O)O)c2csc(N)n2)C(=O)N1S(=O)(=O)O do in these assays?
Giardia kill: 7; TCR activator: 0%; A-T KAP1 phos: -1%; BCR signal inh: 2%; Tb PFK inh: 4%

What do the screens show for `CC(C)COCC(CN(Cc1ccccc1)c1ccccc1)N1CCCC1` (stereo not drawn)?
Giardia kill: 3; TCR activator: 9%; BCR signal inh: inconclusive; FBPA coupling cs: 0&-1; GALK inhibitor: 4%; Tb PFK inh: 0%

What do the screens show for `Nc1ccn([C@@H]2CS[C@H](CO)O2)c(=O)n1`?
BCR signal inh: 2%; FBPA coupling cs: 2&0; GALK inhibitor: 1%; Tb PFK inh: 1%

What do the screens show for `Nc1nc2c(ncn2COCCO)c(=O)[nH]1`?
Giardia kill: 4&10; TCR activator: 4%; A-T KAP1 phos: 0%; BCR signal inh: 4%; FBPA coupling cs: 3&3&-4&-2; GALK inhibitor: -3%; Tb PFK inh: -9%

Results for O=C1C=C(NNC(=O)c2cccnc2)CC(c2ccco2)C1 (stereo not drawn) ?
Giardia kill: -24; TCR activator: 5%; A-T KAP1 phos: -5%; BCR signal inh: inconclusive; FBPA coupling cs: 0; GALK inhibitor: 1%; Tb PFK inh: 0%

How did COC(=O)C1C(O)CCC2CN3CCc4c([nH]c5ccccc45)C3CC21 (stereo not drawn) do in these assays?
Giardia kill: 26; TCR activator: -5%; A-T KAP1 phos: 11%; BCR signal inh: inconclusive; FBPA coupling cs: -21; GALK inhibitor: -2%; Tb PFK inh: 2%

What do the screens show for `C[N+]1(C)CC[C@H](OC(=O)[C@@](O)(c2ccccc2)C2CCCC2)C1`?
Giardia kill: 1; TCR activator: -3%; A-T KAP1 phos: -10%; BCR signal inh: -2%; FBPA coupling cs: -2; Tb PFK inh: 0%

What do the screens show for `C/C(=N\NC(=O)c1ccccc1O)c1c(O)cc(C)oc1=O`?
Giardia kill: 13; A-T KAP1 phos: 5%; BCR signal inh: inconclusive; FBPA coupling cs: -2; GALK inhibitor: -2%; Tb PFK inh: 11%

How did c1ccc(-c2ccc(-c3cn4c(n3)CCC4)cc2)cc1 do in these assays?
Giardia kill: -23; TCR activator: -13%; BCR signal inh: inconclusive; FBPA coupling cs: 2; GALK inhibitor: 1%; Tb PFK inh: -1%

Results for C=CC[C@@H]1Cc2c(Br)ccc(Br)c2[C@@H](CC=C)N1 ?
Giardia kill: 5; TCR activator: 2%[46.1 µM]; A-T KAP1 phos: 40µM*; BCR signal inh: 2%; FBPA coupling cs: -9; GALK inhibitor: 3%; Tb PFK inh: 0%

What do the screens show for `CCN(CC)CCNC(=O)c1ccc(N)cc1`?
Giardia kill: -9; TCR activator: -11%; A-T KAP1 phos: -7%; BCR signal inh: 4%; FBPA coupling cs: -3&0&3; GALK inhibitor: 0%; Tb PFK inh: -3%

Results for COC(=O)[C@H]1[C@H]2C[C@H]3c4[nH]c5ccccc5c4CCN3C[C@H]2CC[C@@H]1O ?
Giardia kill: -5; TCR activator: -17%; A-T KAP1 phos: 2%; BCR signal inh: -11%; FBPA coupling cs: -4; Tb PFK inh: -3%

Results for C[C@@H]1C[C@@H]2[C@H]3CCC4=CC(=O)C=C[C@]4(C)[C@]3(F)[C@@H](O)C[C@@]2(C)[C@@]1(O)C(=O)CO ?
FBPA coupling cs: 2

Results for CCn1nc(C(=O)O)c(=O)c2cc3c(cc21)OCO3 ?
Giardia kill: 0; TCR activator: -14%; A-T KAP1 phos: 3%; BCR signal inh: inconclusive; FBPA coupling cs: -1&0&5&-2; GALK inhibitor: -1%; Tb PFK inh: -1%

Results for COC(=O)c1cc(NC(=O)CN(c2cccc(OC)c2)S(=O)(=O)c2ccccc2)ccc1Cl ?
Giardia kill: -4; TCR activator: -2%[46.1 µM]; A-T KAP1 phos: 1%; BCR signal inh: inconclusive; FBPA coupling cs: -4; GALK inhibitor: -5%; Tb PFK inh: -7%

Results for Cc1ccc(NC(=O)c2cc3c(s2)CCCC3)cc1S(=O)(=O)Nc1ccccc1Cl ?
Giardia kill: 1; TCR activator: 1%[46.1 µM]; A-T KAP1 phos: 7%; BCR signal inh: inconclusive; FBPA coupling cs: 3; GALK inhibitor: 0%; Tb PFK inh: -3%

Results for COc1cc2nc(N3CCN(C(=O)[C@@H]4CCCO4)CC3)nc(N)c2cc1OC ?
Giardia kill: 6; TCR activator: -5%; A-T KAP1 phos: -11%; BCR signal inh: 5%; FBPA coupling cs: 0&1; Tb PFK inh: -1%

What do the screens show for `COc1ccc(/C=C(/Sc2nnc(-c3ccc(Cl)cc3)o2)C(=O)O)cc1`?
Giardia kill: 14; TCR activator: -2%; A-T KAP1 phos: -2%; BCR signal inh: 0%; FBPA coupling cs: 7; GALK inhibitor: 1%; Tb PFK inh: 1%

How did CNCC(=O)O do in these assays?
Giardia kill: inconclusive; TCR activator: -2%; A-T KAP1 phos: 5%; BCR signal inh: -1%; Tb PFK inh: 1%

How did CC(=O)OCC(=O)C1(O)CCC2C3CCC4=CC(=O)C=CC4(C)C3C(O)CC21C (stereo not drawn) do in these assays?
Giardia kill: 37[activator]; TCR activator: 7%; A-T KAP1 phos: -6%; BCR signal inh: -26%; FBPA coupling cs: 2; GALK inhibitor: -1%; Tb PFK inh: -2%

How did Cn1c(=O)c2[nH]cnc2n(C)c1=O do in these assays?
Giardia kill: -14; TCR activator: 1%; A-T KAP1 phos: 1%; BCR signal inh: inconclusive; FBPA coupling cs: 2&2&12&-3&0; GALK inhibitor: 0%; Tb PFK inh: -4%

What do the screens show for `C/C(=N\NC(=O)c1ccc(NS(=O)(=O)c2cccs2)cc1)c1ccc2ccccc2c1`?
Giardia kill: -10; TCR activator: 5%[46.1 µM]; A-T KAP1 phos: -7%; BCR signal inh: inconclusive; FBPA coupling cs: 1; GALK inhibitor: 1%; Tb PFK inh: 2%

Results for CN1CCN(CCC=C2c3ccccc3Sc3ccc(S(=O)(=O)N(C)C)cc32)CC1 ?
Giardia kill: -3; TCR activator: 2%; A-T KAP1 phos: 10%; BCR signal inh: inconclusive; FBPA coupling cs: 2&0; Tb PFK inh: -3%

How did N/C(=N\OC(=O)c1ccco1)c1cccc(Br)c1 do in these assays?
Giardia kill: -2; TCR activator: 0%; A-T KAP1 phos: 4%; BCR signal inh: inconclusive; FBPA coupling cs: -2; GALK inhibitor: 1%; Tb PFK inh: -3%

What do the screens show for `CC(=O)Nc1c(I)c(NC(C)=O)c(I)c(C(=O)O)c1I`?
Giardia kill: 21&10; TCR activator: 7%&-4%; A-T KAP1 phos: 5%&-3%&11%; BCR signal inh: 4%&4%&-10%; FBPA coupling cs: 1&6; GALK inhibitor: 5%; Tb PFK inh: -5%&0%&-2%

What do the screens show for `CC(CN(C)C)CN1c2ccccc2Sc2ccccc21` (stereo not drawn)?
Giardia kill: -2; TCR activator: -4%; A-T KAP1 phos: -7%; BCR signal inh: inconclusive; FBPA coupling cs: 0; Tb PFK inh: -13%

Results for Cc1nn(-c2ccccc2)c2[nH]c(=O)c(CNCCN3CCOCC3)cc12 ?
Giardia kill: -8; TCR activator: -3%; A-T KAP1 phos: 0%; BCR signal inh: 3%; FBPA coupling cs: 0; GALK inhibitor: -1%; Tb PFK inh: 0%

What do the screens show for `COc1cc2nc(N3CCN(C(=O)C4CCCO4)CC3)nc(N)c2cc1OC` (stereo not drawn)?
Giardia kill: -18&-23; TCR activator: 8%&9%; A-T KAP1 phos: 4%&-19%; BCR signal inh: 12%&-6%&5%; FBPA coupling cs: -50*!; GALK inhibitor: 6%&-3%&-2%; Tb PFK inh: 8%&-2%&-1%

How did COc1ccc(C(C)NCCC(c2ccc(OC(C)C)cc2)c2ccccc2OC)cc1 (stereo not drawn) do in these assays?
Giardia kill: -10; TCR activator: 5%; A-T KAP1 phos: -12%; BCR signal inh: inconclusive; FBPA coupling cs: -1; GALK inhibitor: 2%; Tb PFK inh: -3%

How did NCC(O)c1ccc(O)c(O)c1 (stereo not drawn) do in these assays?
Giardia kill: 14; TCR activator: -3%

From PubChem

This is a subset, so the mix of outcomes need not match the whole.
